# From PubChem
# VDR inh: blocks the human vitamin D receptor. P11473. VDR-SRC2-3 peptide fluorescence polarization, 2 h. Potency, µM, for the others: max response, negative = inhibition, usual class: inhibitors. 0.93% of 400,000 active. AID 504847; active = well fitted inhibition curve with a large enough effect; inconclusive = small, poorly fitted or top-dose-only effect, or another doubt; inactive = no such curve, though single readings can be large or run the other way; also: series mostly up to about 120 µM
# Target sequence (P11473 whole entry, looked up): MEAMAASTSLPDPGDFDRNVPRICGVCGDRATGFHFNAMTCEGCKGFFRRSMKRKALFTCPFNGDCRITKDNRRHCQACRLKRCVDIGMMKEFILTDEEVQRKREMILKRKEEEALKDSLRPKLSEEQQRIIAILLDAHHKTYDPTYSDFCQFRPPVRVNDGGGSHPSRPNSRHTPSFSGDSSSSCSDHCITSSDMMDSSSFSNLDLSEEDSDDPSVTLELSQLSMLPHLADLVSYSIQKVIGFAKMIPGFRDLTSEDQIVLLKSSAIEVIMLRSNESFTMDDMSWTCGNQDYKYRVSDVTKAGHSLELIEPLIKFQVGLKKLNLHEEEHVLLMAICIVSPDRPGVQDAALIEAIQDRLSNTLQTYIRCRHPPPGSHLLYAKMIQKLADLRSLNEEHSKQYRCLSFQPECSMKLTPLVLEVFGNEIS
#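 Fluorescence polarization assay measuring small-molecule disruption of VDR binding to the coregulator peptide SRC2-3. Compounds were pin-transferred (23 nl) into the reagent mix and incubated 2 h at room temperature before reading.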
# The depositor's hits bear a star; ? = inconclusive; & = joins results of further samples. % is scaled to controls: 0 for no effect and ±100 for the full control effect; potency is read from the fitted curve at half-maximal effect. A portion of the library, so the mix of outcomes need not match the whole.
item	SMILES	VDR inh
1	COc1ccc(N2CCN(C(CNC(=O)c3ccc4c(c3)OCO4)c3ccco3)CC2)cc1 (stereo not drawn)	19%
2	COCc1nnc(NC(=O)c2cc(OC)c(OC)c(OC)c2)s1	12%
3	CS(=O)(=O)N1CCN(C(=O)Nc2ccccc2)CC1	5%
4	CCOC(=O)N1CCC2(CC1)C(C#N)=C(N)Oc1c2sc2nc(C)cc(C)c12	-13%
5	CCn1c(SCC(O)c2ccccc2)nnc1-c1ccccc1 (stereo not drawn)	7%
6	Cc1cc([N+](=O)[O-])cc2c1NCC1CC=CC21 (stereo not drawn)	-1%
7	COc1ccc(COC(=O)CCS(=O)(=O)c2ccc(C)cc2)cc1F	6%
8	COc1cc(NC(=O)Cc2c(C(=O)O)n(C)c3ccccc23)cc(OC)c1OC	-10%
9	Cc1nnsc1C(=O)Nc1ccccc1	-10%
10	c1ccc(C2Nc3ccccc3-c3nc4ccccc4n32)nc1 (stereo not drawn)	-1%
11	CCC(C)NC(=O)c1cc(CC(C)C)on1 (stereo not drawn)	-1%
12	COC/C=C/C1=CC2=CC(=O)C(C)(OC(=O)c3cnc4ccccc4n3)C(=O)C2=CN1CCCCO (stereo not drawn)	-9%
13	Brc1ccc(/C=N/N2CCN(C3c4ccccc4-c4ccccc43)CC2)s1	-5%
14	CCCCCC1=NN2C(=O)CC(=O)N=C2S1	-16%
15	COc1ccc(NC(=O)N2CC[C@@]3(CCCN(C(=O)c4ccco4)C3)C2)cc1	5%
16	O=C(CSc1ccc(-c2cccs2)nn1)N1CCCCCC1	-3%
17	CCOC(=O)Cn1c(-c2ccccc2)cc(SC)c(C#N)c1=O	10%
18	COc1ccc(OC)c(S(=O)(=O)NCC(c2ccco2)S(=O)(=O)c2ccccc2)c1 (stereo not drawn)	-14%&0%
19	CCC(=O)NC(c1ccc(N(C)C)cc1)c1c(O)ccc2ccccc12 (stereo not drawn)	-9%
20	COc1ccc(NC(=O)N(C)C[C@H]2Oc3ccc(NS(=O)(=O)c4ccccc4)cc3C(=O)N([C@H](C)CO)C[C@@H]2C)cc1	0%
21	CCCc1nnc2n1N=C(c1ccc([N+](=O)[O-])cc1)CS2	-6%
22	CCOc1ccc(CNc2ccc(N3CCOCC3)c(C(=O)O)c2)cc1	4%
23	Cn1cccc1/C=C1\CCC/C(=C\c2cccn2C)C1=O	-18%
24	COc1ccc2nc(NC(=O)CSc3nnc(N)s3)sc2c1	-21%
25	O=C(Nc1cccc(/C=C/c2ccccn2)c1)c1ccc(-n2cncn2)c([N+](=O)[O-])c1	10%
26	N#C/C(=C(/O)CCCl)c1ccccn1	1%
27	CC(C)(C)c1ccccc1OCC(=O)NCc1ccccc1	-5%
28	CSc1ccc(-c2nc(CSCC(=O)NCCCN3CCCC3=O)c(C)o2)cc1	-1%
29	Cc1cc(C)c(OCC(=O)OC(C)C(=O)N2CCc3ccccc32)c(C)c1 (stereo not drawn)	-1%
30	CCCNC(=O)/C(C#N)=C1\N=C(NC(=O)c2ccco2)c2ccccc21	19%

# Other compounds follow:
item	SMILES	VDR inh
31	O=C1OCCN1C(=O)[C@H]1[C@H](c2ccc(F)cc2)C(c2ccc(F)cc2)=NN1c1ccccc1	1%&-9%
32	Cc1ccc(NC(=O)c2cccnc2)c([N+](=O)[O-])c1	-14%
33	COc1ccc(/C=N/N(C)C2=NS(=O)(=O)c3ccccc32)cc1	-13%
34	Cc1cc(C(=O)CSc2nncs2)c(C)n1Cc1ccco1	-5%
35	Cc1ccc(-c2nn(C)c(=O)c3ccccc23)cc1CNC(=O)c1ccco1	11%
36	N#C/C(=C\c1c(N2CCCCC2)nc2ccccn2c1=O)C(=O)NCc1ccco1	6%
37	CC1=C(C)CC(C(=O)NC2CCN(C(C)C)CC2)C(C(=O)O)C1 (stereo not drawn)	7%
38	COc1ccc(C(=O)OCC(=O)Nc2ccc(N3CCOCC3)cc2)cc1	-2%
39	Cc1ccc(NC(=O)c2ccc(OC(=O)CCN3C(=O)c4ccccc4C3=O)cc2)cc1	9%
40	Cc1ccc(NC(=O)CCC(=O)N2CCN(S(=O)(=O)c3ccc(C)cc3)CC2)cc1	5%
41	COc1cccc(/C=C/c2ccccn2)c1O	-27%
42	Cc1onc(-c2ccccc2Cl)c1C(=O)NC1CCCCCC1	9%
43	CCCCc1nnc(NC(=O)CCS(=O)(=O)c2ccc(C)cc2)s1	-6%
44	Cc1ccc(-c2nnc(Nc3ccc(C(N)=O)cc3)c3ccccc23)cc1S(N)(=O)=O	1%
45	O=C(Oc1ccc2ccc(O)cc2c1)c1ccccc1Cl	6%
46	COc1ccc(Br)cc1CNC(=O)CN1CCSc2ccccc21	5%
47	CC(C)(C)c1ccc(OCc2ccc(C(=O)Nc3cccnc3)o2)cc1	-9%
48	CC1CCN(c2ncnc3ccccc23)CC1	7%
49	CCc1noc(-c2ccc(N3CCCCC3)c([N+](=O)[O-])c2)n1	13%
50	COc1cc(CC(=O)OCC(=O)NCCc2ccc(S(N)(=O)=O)cc2)cc(OC)c1OC	-4%
51	O=C(CC1CCCCC1)NCc1ccccc1	-10%
52	COc1ccc(NC(C)=O)cc1NC(=O)c1cccc(S(=O)(=O)N2CCc3ccccc32)c1	0%
53	CC(=O)c1ccc(NC(=O)C2=CC(c3ccc4c(c3)OCO4)=NS(=O)(=O)N2C)cc1	-1%&-5%
54	CCN(CC)c1ccc(NC(=O)c2cnn3c(C(F)F)cc(-c4ccccc4)nc23)cc1	-29%
55	CN(CCc1ccccn1)c1ncnc2[nH]ncc12	4%
56	CCN(CC(=O)Nc1c(F)cccc1F)C(=O)c1ccc(OCC(=O)N2CCOCC2)c(OC)c1	-2%
57	COC(=O)c1nccc2c1[nH]c1ccccc12	2%
58	CC(=O)NN1C(=O)/C(=C/c2ccc(Br)o2)SC1=S	-2%
59	O=C(Nc1cccc(F)c1)N1CCCC2(CCNCC2)C1	?
60	O=C(O)CN1C(=O)CCS(=O)c2ccccc21 (stereo not drawn)	6%

# Ordered by the number under VDR inh (smallest number first): three from the list above.
item	SMILES	VDR inh
33	COc1ccc(/C=N/N(C)C2=NS(=O)(=O)c3ccccc32)cc1	-13%
37	CC1=C(C)CC(C(=O)NC2CCN(C(C)C)CC2)C(C(=O)O)C1 (stereo not drawn)	7%
35	Cc1ccc(-c2nn(C)c(=O)c3ccccc23)cc1CNC(=O)c1ccco1	11%

# Continued.
item	SMILES	VDR inh
61	CCN(CC)CCNC(=O)C12CC3CC(C)(CC(C)(C3)C1)C2	4%
62	[O-]/[N+](=N\Nc1ccc(Cl)cc1)c1ccccc1	?
63	Cc1ccc(-c2nc(N)n(C(=O)Cc3ccccc3)n2)cc1	11%
64	Cc1ccccc1NC(=O)CSCC(=O)Nc1ccccc1C	9%
65	COc1cc2ncc(C(=O)c3ccc(C)cc3)c(N3CCCCC3)c2cc1OC	-21%
66	CCOC(=O)c1ccc(NC(=O)CC2SCCNC2=O)cc1 (stereo not drawn)	2%
67	CCN(CC)CCN1C(=O)C(=O)/C(=C(/O)c2ccc(OC(C)C)cc2)C1c1cccs1 (stereo not drawn)	19%
68	CCCNC(=O)c1onc(CSc2ccc(Cl)cc2)c1C(=O)NCCC(C)C	-3%
69	COc1ccc(-c2csc(NC(C)c3nc4cc(Cl)c(N5CCCCC5)cc4n3CCCO)n2)cc1 (stereo not drawn)	6%
70	Cc1cccc(-c2ncc(CN3CCCC(CO)(Cc4cccc(Cl)c4)C3)cn2)c1 (stereo not drawn)	-5%
71	CC(=O)c1ccc(NC(=O)c2ccc3snnc3c2)cc1	-7%
72	CCCn1c(SCC(=O)N2CCCc3ccccc32)nc2c1c(=O)n(C)c(=O)n2C	22%
73	Cc1ccc2c(c1)-c1c(cnn1CC(=O)N1CCN(c3ccccc3F)CC1)CO2	4%
74	COC(=O)C1=CN(Cc2cccs2)C=C(C(=O)OC)C1c1cccc(O)c1	3%
75	COc1ccc(Br)c(C(=O)NCCC(C)C)c1	0%
76	Cc1cc(Cl)ccc1OCC(=O)N(Cc1ccco1)Cc1ccccc1F	-7%
77	CC(=O)c1cccc(NS(=O)(=O)c2ccc3c(c2)N(C(C)=O)CCO3)c1	-8%
78	Cc1cccc(N2CCN(c3ncnc4c3cnn4-c3ccc(Cl)cc3)CC2C)c1 (stereo not drawn)	14%
79	Cc1cc(C)c(S(=O)(=O)NCC(c2ccco2)S(=O)(=O)c2ccccc2)c(C)c1 (stereo not drawn)	6%
80	COc1ccc(CNC(=O)COC(=O)c2cc(C)nc3ccccc23)cc1	-27%
81	COc1cc(C(=O)NCCCc2ccccc2)cc(OC)c1OC	13%
82	O=C(Cc1ccccc1)Nc1ccc(S(=O)(=O)N2CCCC2)cc1	-1%
83	C/C(=N/NC(=O)CN1CCN(S(=O)(=O)c2ccc(C)cc2)CC1)c1cccc(O)c1	-10%
84	CCCCn1c(N)c(N(CCOC)C(=O)c2ccc(COc3ccccc3)o2)c(=O)[nH]c1=O	6%
85	O=C(NC(=S)N(CCO)Cc1ccccc1)c1ccc(F)cc1Cl	4%
86	CC(=O)N1CCN(c2nnc(-c3ccccc3)c3ccccc23)CC1	0%
87	CCOC(=O)c1c(NC(=O)CSc2nc3cc(Cl)ccc3c(=O)n2Cc2ccco2)sc(C(=O)N(C)C)c1C	-25%
88	O=C(N/N=C/c1ccc(Cl)cc1Cl)Nc1ccccc1	14%
89	Cc1ccc(S(=O)(=O)N2[C@@H](c3cccc(Cl)c3)C(C(=O)O)=CC[C@H]2c2ccc(Cl)cc2)cc1	-19%
90	CCn1c(C)cc(/C=C2\SC(=O)N(CC(=O)Nc3ccc(C)c(C)c3)C2=O)c1C	-15%

# Fetched by compound from above:
item	SMILES	VDR inh
63	Cc1ccc(-c2nc(N)n(C(=O)Cc3ccccc3)n2)cc1	11%
73	Cc1ccc2c(c1)-c1c(cnn1CC(=O)N1CCN(c3ccccc3F)CC1)CO2	4%
66	CCOC(=O)c1ccc(NC(=O)CC2SCCNC2=O)cc1 (stereo not drawn)	2%
72	CCCn1c(SCC(=O)N2CCCc3ccccc32)nc2c1c(=O)n(C)c(=O)n2C	22%
82	O=C(Cc1ccccc1)Nc1ccc(S(=O)(=O)N2CCCC2)cc1	-1%

# Going on with the list.
item	SMILES	VDR inh
91	COc1ccc(CCNC2=NCC(C)S2)cc1 (stereo not drawn)	-6%
92	O=C(COC(=O)c1cccc(F)c1)Nc1ccc(Cl)cn1	7%
93	COC(=O)c1c(C(=O)OC)c(-c2cccc(C)c2)n2c1CS(=O)(=O)C2	11%
94	Cc1c(C(C)C)c(=O)n(-c2ccc(S(=O)(=O)NC3CC3)cc2)n1C	15%
95	CCOC(=O)c1cnc2c(c(C)nn2CC)c1Cl	1%
96	Cc1ccc2c(c1)N(CC(=O)Nc1nccs1)C(=O)CO2	8%
97	CCC(C)c1ccc(S(=O)(=O)N2CCN3CCCC3C2)cc1 (stereo not drawn)	3%
98	Cc1cc(-c2ccccc2)nc(N/N=C/c2ccccc2F)n1	20%
99	O=C(CCc1ccc(S(=O)(=O)N2CCOCC2)cc1)Nc1nc(COc2ccccc2)cs1	-6%
100	Cc1ccc2c(c1)N(C(=O)CCC(=O)N1CCN(c3ccccn3)CC1)CCO2	-10%
101	Cc1c(C)c2c(c(C)c1O)CC[C@@](C)(CCC[C@H](C)CCC[C@H](C)CCCC(C)C)O2	-1%&9%&-3%&7%
102	Cc1cc(CSc2nc(C)cc(=O)[nH]2)c2ncccc2c1	-13%
103	S=C(Nc1cccc(Cl)c1)NC1CCCCC1	-13%
104	Clc1ccc(Cc2ccccn2)cc1	8%
105	CC(C)(C)c1ccc(OCC(=O)Nc2ccncc2)cc1	-14%
106	COc1cccc(NS(=O)(=O)c2ccc(C)c(C(=O)N3CCCCC3)c2)c1	1%
107	CC(C)c1ccc(NC(=O)C2CCC(CNC(=O)[C@@H]3Cc4ccccc4CN3)CC2)cc1 (stereo partly drawn)	-11%
108	Cc1cc(C2=NNC(=Nc3ccc(S(=O)(=O)N4CCOCC4)cc3)SC2)c(C)n1CC1CCCO1 (stereo not drawn)	14%
109	CCCSc1nc(NCc2ccco2)c2c3c(sc2n1)COC(C)(C)C3	-7%
110	CC1CCC(NC(=O)CC2Oc3ccccc3NC2=O)CC1 (stereo not drawn)	-1%
111	CSc1nc(C)c(CCO)c(=O)[nH]1	-9%
112	Cc1cc(C)cc(OCC(=O)NN2Cc3ccccc3C2=N)c1	7%
113	CCC(C)NC(=O)c1ccc(NC(=O)CC2SC(N3CCCC3)=NC2=O)cc1 (stereo not drawn)	5%
114	CCOC(=O)c1ccc(CSC(=N)N)o1	-16%
115	Cc1c(Cl)cccc1NC(=O)C1CC2CCC1C2 (stereo not drawn)	-22%
116	O=S(=O)(Nc1cccc(S(=O)(=O)N2CCCC2)c1)c1cccc(Br)c1	-8%
117	CCCCCCSc1ccc([C@H]2N[C@@](C)(C(=O)OC)[C@H]3C(=O)N(C)C(=O)[C@@H]23)cc1	-17%
118	Cc1ccc(/C=C/c2onc(C)c2S(=O)(=O)N2CCC(C(=O)N3CCN(C)CC3)CC2)cc1	3%
119	ClCc1csc(-c2ccccc2Cl)n1	6%
120	CN(CC(=O)NCCN1CCOCC1)S(=O)(=O)c1ccc(Cl)cc1	0%

# (cont.)
item	SMILES	VDR inh
121	Cc1ccc(NC2=NC(c3ccccc3)n3c(nc(C)cc3=O)N2)cc1 (stereo not drawn)	0%
122	O=C(NCCN1CCOCC1)c1cccc2c1C(=O)c1ccc(N3CCCC3)cc1S2(=O)=O	19%
123	CCOc1ccc(NC(=O)N(CCN2CCOCC2)Cc2ccc3c(c2)CCCN3CC)cc1	11%
124	Cc1ccc(C(=O)Nc2cccc(C(=O)NCc3ccccc3)c2)cc1	-9%
125	COCCn1c(SCC(=O)Nc2nc(C)c(Cl)cc2Cl)nc2ccccc21	3%
126	Cc1ccc(N(CC(=O)NCc2ccc3c(c2)OCO3)S(C)(=O)=O)cc1	-20%
127	c1ccc(CCNc2ncnc3nc[nH]c23)cc1	-7%
128	COc1ccccc1Nc1ccc(NS(=O)(=O)c2ccc(C(C)=O)cc2)cc1	13%
129	COc1ccc(-c2csc(NC(=O)C3CC(=O)N(Cc4ccccc4)C3)n2)cc1OC (stereo not drawn)	6%
